H5N1 CPE – MDCK cell protection from H5N1 avian flu; cytopathic effect, luminescence, 72 h; active compounds read high; no value below 0 was filed and about half of the inactive calls have no number; reference of the scale not given here; inhibition, % at 50 µM; 0.07% of 96,000 active; AID 740, 2007; in the data active = inhibition above about 25%
* = called active by the depositor; i = inactive. These rows are one share of the data, so the mix of outcomes need not match the whole.

SMILES	H5N1 CPE
CC(C)N1C(=O)c2ccccc2C1C(=O)NC1CCCCCC1 (stereo unspecified)	i
Cc1nc2cc(CO)ccc2n1C	i
CC(=O)Nc1nnc(SCc2ccccc2F)s1	0.1
O=C(NC1CC1)c1ccc2c(c1)NC(=O)c1ccccc1S2	i
CC/C(=N\O)c1ccc(O)c(OC)c1	0.1
COc1cc2c(cc1OC)CN(C(=O)c1cccs1)CC2	2.5
C=CCn1c(SCC(=O)NC)nc2sc3c(c2c1=O)CCC3	i
Cc1ccc([N+](=O)[O-])cc1N=C(c1cccc([N+](=O)[O-])c1)N1CCOCC1	3.6
CC(=O)Nc1ccc(S(=O)(=O)N2CCN(CCCOc3cc(C)ccc3C)CC2)cc1	3.3
CC1CCCC(NC(=O)Cn2cc3c(n2)CCCCC3)C1C (stereo unspecified)	1.0
Cc1ccc(-c2nnc(Sc3nc4ccccc4o3)c3ccccc23)cc1	1.5
COc1ccc(-c2nnn(CC(=O)c3c[nH]c4ccccc34)n2)cc1OC	i
O=S(=O)(c1cc(Cl)ccc1Br)N1CCOCC1	1.4
COCCN1C(=O)c2ccccc2C(C(=O)NCC2CCCO2)C1c1c[nH]c2ccccc12 (stereo unspecified)	i
COc1cccc(/C=N/NC(=O)C(=O)N2CCCC2)c1OC	0.1
CCOc1cc2[nH]c(=S)n(C(C)C)c(=O)c2cc1OCC	0.2
Cc1cc(C(=O)Nc2cc(C)n(Cc3ccc(Cl)cc3)n2)no1	0.0
Cn1cnnc1SCC(=O)c1ccco1	i
COc1ccc(/C=N/N=C2/NC(=O)C(c3ccccc3)S2)c(OC)c1 (stereo unspecified)	i
COc1cc(C(=O)Oc2cccc(C=O)c2)cc(OC)c1OC	0.7
COC(=O)c1[nH]nc2c1C(=O)N(C1CCCCC1)C2=O	i
Oc1ccc(Br)cc1-c1nc2cnccn2c1NC1CCCC1	6.2
CCCc1oc(C(=O)O)cc1CN	i
CC(C)CCNC(=O)NC(=O)CSc1nnc(COc2ccccc2Cl)o1	i
CS(=O)(=O)c1ccc(Cl)c(NC(=O)C2CC(=O)N(Cc3ccccc3)C2)c1 (stereo unspecified)	i
COc1ccccc1CNC(=O)C1CCN(S(=O)(=O)c2cccc3cccnc23)CC1	0.8
O=C(CS(=O)c1ccc(C(F)(F)F)cc1[N+](=O)[O-])Oc1ccc(Cl)cc1 (stereo unspecified)	i
CCc1nc2c(cnn2-c2ccc(F)cc2)c(=O)n1-c1ccc(N2CCC(C)CC2)cc1	8.4
COc1ccc(NC(=O)COc2ccccc2C#N)c(S(=O)(=O)N2CCCCC2)c1	i
Cc1ccnc(NS(=O)(=O)c2ccc(Oc3ccccc3)cc2)c1	i
CCOC(=O)C1=C(C)N(C)C(=O)NC1c1ccc(C)s1 (stereo unspecified)	0.6
O=c1cc(CSc2nnc(COc3ccccc3Cl)o2)nc2sccn12	0.8
O=c1[nH][nH]c(-c2ccccc2)c1C=Nc1ccccc1	0.9
COc1ccc(CN2CCN(C(=O)c3cc(OC)c(OC)c(OC)c3)CC2)cc1OC	i
COc1ccc(CCNC(=O)CC2Nc3ccccc3NC2=O)cc1 (stereo unspecified)	0.3
CCC1(C)Cc2c(sc3c2c(=O)n(C)c2nnc(SCCc4ccccc4)n32)CO1 (stereo unspecified)	1.4
N#CCSc1ncnc2c1cnn2CCO	i
CCC(CC)C(=O)Nc1cc(C(=O)OC)cc(C(=O)OC)c1	1.3
CCc1ccc(N2C(=O)c3ccc4c5c(ccc(c35)C2=O)CC4)cc1	1.9
CCn1c(C(=O)N2CCC(Cc3ccccc3)CC2)cc2sccc21	0.6
COc1ccccc1C(=O)N(CN1CCCC1=O)c1cccc(Cl)c1	0.2
CCn1c(C)[n+](CC(O)COCC2CC=CCC2)c2ccccc21 (stereo unspecified)	0.7
CC12CN3CC(C)(CN(C1)C3c1ccco1)C2=O (stereo unspecified)	0.3
COc1cccc(-c2cc(C(F)(F)F)n3ncc(S(=O)(=O)c4ccccc4)c3n2)c1	i
CCCN1C(=O)/C(=C/c2ccc(C)o2)SC1=Nc1ccc(OC)cc1	0.2
CCOC(=O)C1=C(CN2CCN(c3ccc(F)cc3)CC2)NC(=O)NC1c1cccs1 (stereo unspecified)	i
O=C(O)C1CCCCC1C(=O)Nc1ccc2c(c1)OCCO2 (stereo unspecified)	0.4
COc1ccc2oc(C)c(C(N)=O)c2c1	i
CCOC(=O)C1=C(N)N2C(=O)C(C)SC2=C(C(=O)OC)C1c1ccccc1OC (stereo unspecified)	0.1
COc1ccccc1-c1cc(C(=O)NCCc2ccccc2)no1	i

An excerpt from above in order of SMILES length, lowest first.
SMILES	H5N1 CPE
CC12CN3CC(C)(CN(C1)C3c1ccco1)C2=O (stereo unspecified)	0.3
COc1ccccc1-c1cc(C(=O)NCCc2ccccc2)no1	i
CCn1c(C)[n+](CC(O)COCC2CC=CCC2)c2ccccc21 (stereo unspecified)	0.7
CCCN1C(=O)/C(=C/c2ccc(C)o2)SC1=Nc1ccc(OC)cc1	0.2
CCOC(=O)C1=C(N)N2C(=O)C(C)SC2=C(C(=O)OC)C1c1ccccc1OC (stereo unspecified)	0.1

(next part)
SMILES	H5N1 CPE
COc1ccc(C(=S)Nc2ccc(N(C)C)cc2)cc1	0.1
NS(=O)(=O)c1ccc(CCNc2ncnc3c2c(-c2ccccc2)cn3-c2ccc(F)cc2)cc1	i
COc1ccc(N2CCN(C(=O)CCNS(=O)(=O)c3cccs3)CC2)cc1	i
COC(=O)CCc1c(C)c(C#N)c2nc3ccccc3n2c1N1CCCC1	3.5
CCCCn1c(CCNC(=O)CC)nc2ccccc21	1.5
CCOC(=O)Cn1c(=O)c2c(nc3n2CCCCN3c2ccc(C)cc2)n(C)c1=O	0.6
Cc1noc(/C=C/c2ccco2)c1S(=O)(=O)N1CCC(C(=O)NCc2ccco2)CC1	0.6
NNC(=O)Cn1c(SCc2ccccc2)nc2ccccc21	1.0
Cc1cccc(-c2cc(C(=O)NCCCn3ccnc3)c3ccccc3n2)c1	i
Cc1cc2c(C)nc(-c3ccccc3)nc2o1	0.1

Among those listed so far, these have a nitro group on carbon:
SMILES	H5N1 CPE
Cc1ccc([N+](=O)[O-])cc1N=C(c1cccc([N+](=O)[O-])c1)N1CCOCC1	3.6
O=C(CS(=O)c1ccc(C(F)(F)F)cc1[N+](=O)[O-])Oc1ccc(Cl)cc1 (stereo unspecified)	i

The listing picks up with the five entries that preceded the break.
SMILES	H5N1 CPE
CCOC(=O)Cn1c(=O)c2c(nc3n2CCCCN3c2ccc(C)cc2)n(C)c1=O	0.6
Cc1noc(/C=C/c2ccco2)c1S(=O)(=O)N1CCC(C(=O)NCc2ccco2)CC1	0.6
NNC(=O)Cn1c(SCc2ccccc2)nc2ccccc21	1.0
Cc1cccc(-c2cc(C(=O)NCCCn3ccnc3)c3ccccc3n2)c1	i
Cc1cc2c(C)nc(-c3ccccc3)nc2o1	0.1
OCCCCNc1cccc2ccccc12	i
O=C(Cn1cc2c(n1)CCCCC2)NCc1ccccc1	0.6
COc1ccccc1OCCc1nnc(N)s1	i
OCCN(Cc1ccccc1)Cc1cccc(Cl)c1Cl	1.3
CCOC(=O)c1sc(NC(=O)c2ccc(CC)s2)nc1C	0.1
CCNc1nc(Oc2ccc(=O)[nH]n2)nc(N2CCOCC2)n1	0.9
Nc1nc(SCC(=O)NC2CCCC2)[nH]c(=O)c1-c1ccccc1	0.2
COc1ccc(-c2c3c(=O)n(C)c(=O)n(C)c3cn2Cc2cccnc2)cc1	0.3
Cc1ccc(N2C(N)=C(C#N)C3(C(=O)N(C)c4ccccc43)C3=C2CC(C)(C)CC3=O)cc1Cl (stereo unspecified)	0.3
O=C(CSc1nc(-c2ccc(F)cc2)cs1)N1CCc2ccccc21	i

As a working copy, part of the list above:
SMILES	H5N1 CPE
OCCCCNc1cccc2ccccc12	i
O=C(Cn1cc2c(n1)CCCCC2)NCc1ccccc1	0.6
COc1ccccc1OCCc1nnc(N)s1	i
OCCN(Cc1ccccc1)Cc1cccc(Cl)c1Cl	1.3

Following part:
SMILES	H5N1 CPE
O=C(O)CC(c1ccccc1)c1ccccc1	i
CCC(=O)Nc1ccc(S(=O)(=O)N2CCCCC2)cc1OC	0.2
Cn1c(=O)oc2cc(S(=O)(=O)NCCC(=O)N3CC=C(c4ccccc4)CC3)ccc21	0.8
CCS(=O)(=O)N1CCCC(C(=O)NCc2ccc3c(c2)OCO3)C1 (stereo unspecified)	0.3
CCC(=O)NC(c1ccccc1)c1nc2ccccc2[nH]1 (stereo unspecified)	i
COc1cc(C(=O)O)nc2ccccc12	i
Cc1ccc(NC(=O)c2ccc(C#CC3(O)CCCCC3)cc2)cc1C	0.3
Cc1oc(-c2ccc(Cl)cc2)nc1CSCC(=O)NCCCN1CCOCC1	i
Cc1ccc(OCC(=O)Nc2ccc(-c3nc4ncccc4o3)cc2)cc1	4.0
COC(=O)c1ccc(-c2nc(-c3ccc(Br)o3)no2)cc1	i
O=C(Nc1ccc2c(c1)OCCO2)C1CCN(c2cnccn2)CC1	i
CCOc1cc2nc(-c3ccc(OC)c(OC)c3)nc(N3CCOCC3)c2cc1OC	i
CC(C)(C)NC(=O)C(c1ccccc1)N(Cc1ccco1)C(=O)c1csnn1 (stereo unspecified)	1.2
O=C(CN1C(=O)c2ccccc2C1=O)NN1C(=O)c2ccccc2C1=O	0.3
Brc1ccc(-c2nnc(SCCC3OCCCO3)o2)cc1	i
c1ccc(OCc2nn3c(-c4ccccn4)nnc3s2)cc1	i
COc1ccc(-c2cc(CCCC(=O)NCc3ccccn3)no2)cc1	2.3
CCc1ccc(CNc2ccc(N3CCN(C(C)=O)CC3)cc2)cc1	0.5
CCC(=O)N1CCc2cc(S(=O)(=O)NCCCN(CC)Cc3ccccc3)ccc21	i
COc1cc(C)c(S(=O)(=O)Nc2ccc(CC(=O)O)cc2)cc1C	0.1
CC(=O)N1CCc2cc(S(=O)(=O)NC(CC(C)C)C(=O)N3CCn4c3nc3ccccc34)ccc21 (stereo unspecified)	i
CC1CN(c2oc(-c3ccccc3Cl)nc2C#N)CC(C)O1 (stereo unspecified)	0.2
Cc1ccc(OCC(=O)NCc2cccs2)cc1	0.1
C=CCN(CCNP(=O)(OCC)OCC)CP(=O)(OCC)OCC	1.1
CCCCN(CC)C(=O)CN(C)S(=O)(=O)c1cccc2nsnc12	2.5
Cc1ccc(CNC(=O)C2CCN(S(=O)(=O)c3cccs3)CC2)o1	i
COCCCN1C(=O)c2ccc(C(=O)Nc3ccc(OC)cc3)cc2C1=O	i
Cc1cccc(-n2nnnc2SCn2nnc3ccccc3c2=O)c1	1.7
Cc1cccc(N(CC(=O)N=Nc2c(O)[nH]c3ccccc23)S(C)(=O)=O)c1C	0.8
CCCc1ccc(C(=O)CCC(=O)O)cc1	i
O=C(CSCc1ccccc1Cl)Nc1ccc2c(c1)OCCO2	i
CC(=O)n1c2ccccc2c2nc(NC(C)C)sc21	i
O=C(NC1CC1)C1CCN(c2ncnc3c2sc2cccc(F)c23)CC1	2.1
COC(=O)CC1C(=O)NCCN1C(=O)Nc1ccc(Cl)cc1 (stereo unspecified)	i
O=C(c1ccco1)N1CCN(c2ncnc3sc4c(c23)CCC4)CC1	5.8
CCN(CC)c1ccc2c(C)c(-c3ccc(N)cc3)c(=O)oc2c1	i
CCOc1cc(CNCCO)cc(Br)c1OCc1ccc(Cl)cc1	i
COC(=O)c1ccc(/C=N/OCC(=O)NC2CCCC(C)C2C)cc1 (stereo unspecified)	0.1
COCCNC(=O)C1CC(c2ccccc2[N+](=O)[O-])=NO1 (stereo unspecified)	1.3
Cc1ccc(-n2nc(-c3ccc(N)cc3)cc2N)cc1	0.6
C(=N\Nc1ccc(-n2ccnc2)nn1)/c1ccccc1	0.9
CC(=O)c1cccc(NC(=O)NCc2ccccn2)c1	0.1
CCOC(=O)/C=C1\SCC(=O)N1CC(=O)Nc1ccccc1OC(F)F	0.4
O=C(NCCc1ccccc1)c1cccnc1N1CCCCCC1	i
Cc1ccc(Br)cc1S(=O)(=O)N1CCN(c2ccccc2)CC1	2.2
Cn1c(C(=O)N2CCCC2)cc2c(=O)n(C)c3ccccc3c21	1.8
Cc1ccc(NCc2nnc(SCC(=O)Nc3cccc(O)c3)n2CC2CCCO2)c(C)c1 (stereo unspecified)	i
O=C(CNC(=O)c1ccccc1)NCC(=O)OCc1ccc(Cl)cc1	0.1
COc1ccc(S(=O)(=O)N2CCN(S(=O)(=O)c3ccc(C(F)(F)F)cc3)CC2)cc1C	0.3
COc1ccc(OC)c(N(CC(=O)N2CCC(C)CC2)S(=O)(=O)c2ccccc2)c1	0.2

(continued)
SMILES	H5N1 CPE
Cc1nc(CSc2nc3[nH]ncc3c(=O)n2-c2ccccc2)cs1	6.7
C(=NC12CN3CN(CN(C3)C1)C2)c1cccs1	i
O=C(COc1ccc(/C=N/NS(=O)(=O)c2ccccc2)cc1)Nc1cccc(Cl)c1	2.2
O=C(O)Cn1cc2c(n1)CCCC2	0.2
CC1(C)CC(CCNC(=O)c2ccc(-n3cnnn3)cc2)CC(C)(C)N1	i
COC(=O)Cn1c(CN2CCC(Cc3ccccc3)CC2)nc2c1c(=O)n(C)c(=O)n2C	0.2
O=C(NCCNS(=O)(=O)c1ccc(Cl)cc1)c1cc(OCC(F)(F)F)ccc1OCC(F)(F)F	i
CC(C)Sc1nc(N)nc(-c2cccs2)c1C#N	1.5
CC12CCCCC1c1ccccc1C(=NCC(=O)O)N2 (stereo unspecified)	0.1
NC(=O)CCCCC(=O)OCCCc1cccs1	0.3
O=C1c2ccccc2C(=O)N1CSc1nnnn1-c1ccccc1	1.0
Cn1cccc1Cc1nnc(SCC(=O)Nc2ccc3c(c2)OCCO3)n1CCc1ccccc1	i
CC(=O)NCCn1c(SCc2ccccc2F)nc2ccccc2c1=O	0.2
COc1ccc(NC(=O)C2CCCN(S(=O)(=O)c3cccc4cccnc34)C2)cc1 (stereo unspecified)	1.6
Cc1ccc2oc(=O)c3cnn(CC(=O)N(CCN(C)C)Cc4ccco4)c3c2c1	1.6
COc1ccc(NC(=O)CN2c3cccc4cccc(c34)S2(=O)=O)cc1	1.3
CCOC(=O)N1CCN(C(=O)CN(c2ccc(C)cc2)S(=O)(=O)c2c(C)noc2C)CC1	0.3
O=S(=O)(NCc1csc(-c2ccccc2)n1)c1ccc(Cl)s1	2.2
COc1ccc(NC(=O)C(c2ccc(OC)cc2)N(C)C(=O)CNC(C)=O)cc1 (stereo unspecified)	i

Screening results (PubChem BioAssay)
